High-throughput results (PubChem)
Cruzain Triton: inhibitors of Trypanosoma cruzi cruzain with detergent. 200,000 tested, 0.43% active. Potency, µM, without a hit: max response, negative = inhibition, hits mostly inhibitors. purified cruzain, Z-FR-AMC fluorescence, 0.01% Triton. P25779. AID 1478;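 further: plate controls were neutral wells for no effect and buffer without enzyme for full effect; nearly all actives have a fitted effect of over 40% in size; top concentration of the series not given in the record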
Target sequence (P25779 123-467 limits assumed): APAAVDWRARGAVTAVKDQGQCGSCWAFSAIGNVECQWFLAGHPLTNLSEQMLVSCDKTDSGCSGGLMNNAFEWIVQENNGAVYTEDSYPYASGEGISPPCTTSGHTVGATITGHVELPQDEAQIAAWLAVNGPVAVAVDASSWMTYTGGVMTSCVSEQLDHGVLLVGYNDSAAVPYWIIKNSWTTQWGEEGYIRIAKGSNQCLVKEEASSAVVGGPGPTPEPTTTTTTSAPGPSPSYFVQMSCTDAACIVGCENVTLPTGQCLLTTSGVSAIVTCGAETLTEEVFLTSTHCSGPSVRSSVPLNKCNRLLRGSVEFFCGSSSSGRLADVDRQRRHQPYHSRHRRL
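Enzyme 1.5 nM, Z-FR-AMC 2 uM, NaOAc 100 mM pH 5.5, DTT 5 mM, Triton X-100 0.01%; 15 min RT compound preincubation; kinetic ex360/em450, 60 s delta.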
NS1 inh: blocks influenza NS1 protein function | 270,000 tested, 0.4% active | AID 2326 | Potency, µM (highest dose often 46.1 µM), for the others: at the top dose activity, positive = more growth | S. cerevisiae slowed by influenza A NS1, growth recovery by OD600; active means well fitted rising curve with a large enough effect; inconclusive means small, poorly fitted or top-dose-only effect; inactive means no such curve, though single readings can be large or run the other way; further: nearly all actives have a fitted effect of over 50% in size
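Read-out: OD600 growth recovery of NS1-expressing budding yeast. Cells grown overnight at 30C in -URA glucose medium, washed, resuspended and diluted 1:100 in 2% galactose assay medium, pH 6.0. Same strain lacking NS1 served as positive control.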
Cruzain noTriton: blocks cruzain activity in detergent-free assay | P25779 | purified cruzain, Z-FR-AMC fluorescence, no detergent | Potency, µM, inactives show max response, negative = inhibition, hits mostly inhibitors | 200,000 tested, 2.3% active | AID 1476;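 further: plate controls were enzyme without inhibitor for no effect and buffer without enzyme for full effect; nearly all actives have a fitted effect of over 40% in size; top concentration of the series not given in the record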
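Purified cruzain at 1.5 nM, pre-incubated 15 min with compound at room temperature in 100 mM sodium acetate pH 5.5, 5 mM DTT, 0.00005% Triton X-100. Reaction started with 2 uM Z-FR-AMC; AMC fluorescence increase over 60 s gives rate.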
Marburg entry inh: inhibitors of Marburg virus binding or cell entry; Marburg virus pseudotyped entry inhibition, cell reporter; control for the full effect not named in the record; about a third of the inactives were read at about 46 µM; 300,000 tested, 1.8% active; AID 540276; Potency, µM (doses to about 37.8 µM), for the others: at the highest dose activity change, negative = inhibition, usual class: inhibitors; active = well fitted inhibition curve with a large enough effect; inconclusive = small, poorly fitted or top-dose-only effect, or effect the other way; inactive = flat fitted curve, though single readings scatter; tested in HEK293 cells; about a fifth of its hits are not listed in these tables; further: on the % scale 0 is the no-effect control and ±100 the full control effect; luciferase read-out
StopGo reporter: FMDV 2A StopGo reporter, luciferase signal; human cells with a luciferase reporter of 2A StopGo recoding; control for the full effect not named in the record; Potency, µM (doses to about 57.9 µM), without a hit: at the top dose signal change, negative = less light; 410,000 tested, 1.2% active; AID 1159524; active = well fitted falling curve with a large enough effect; inconclusive = small, poorly fitted or top-dose-only effect; inactive = no such curve, though single readings can be large or run the other way; tested in HEK293T cells; further: on the % scale 0 is the no-effect control and ±100 the full control effect; nearly all actives have a fitted effect of over 45% in size; luciferase light after 4 h
SARS PLpro yeast: blocks SARS-CoV papain-like protease in a yeast assay. S. cerevisiae expressing SARS-CoV PLpro, growth rescue; control for the full effect not named in the record. 330,000 tested, 0.19% active. Potency, µM (titrated, usually from 32.9 µM), without a hit: at the highest dose activity, positive = growth rescue. AID 485353; active means well fitted rising curve with a large enough effect; inconclusive means small, poorly fitted or top-dose-only effect; inactive means no such curve, though single readings can be large or run the other way; further: 0% is about no effect; nearly all actives have a fitted effect of over 55% in size; growth read by luminescence after 48 h
Lassa entry inh: Lassa virus entry inhibition | AID 540256 | Lassa virus pseudotype entry inhibition, cell reporter; control for the full effect not named in the record | 300,000 tested, 1.2% active | Potency, µM (top dose mostly 37.9 µM), for inactives: top-dose activity change, negative = inhibition, actives largely listed as inhibitors; active means well fitted inhibition curve with a large enough effect; inconclusive means small, poorly fitted or top-dose-only effect, or effect the other way; inactive means flat fitted curve, though single readings scatter; tested in HEK293 cells; further: on the % scale 0 is the no-effect control and ±100 the full control effect; nearly all actives have a fitted effect of over 50% in size; luciferase read-out
RE007 growth inh: less growth of the S. pombe RE007 Vpr strain | Potency, µM (doses to about 92.2 µM), inactives show top-dose activity change, negative = less growth | S. pombe RE007 Vpr strain, BacTiter-Glo ATP luminescence, 24 h; control for the full effect not named in the record | 360,000 tested, 0.21% active; active = well fitted falling curve with a large enough effect; inconclusive = small, poorly fitted or top-dose-only effect; inactive = no such curve, though single readings can be large or run the other way;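 further: on the % scale 0 is the no-effect control and ±100 the full control effect; nearly all actives have a fitted effect of over 50% in size; the assay follows cell death caused by Vpr and the record does not say whether a fall means rescue or toxicity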
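Fission yeast strain RE007, carrying one chromosomally integrated HIV-1 vpr copy, was seeded at OD 0.01 in PMG+AL medium with 23 nL pinned compound. After 24 h at 30 °C and 99% humidity, viability was read by BacTiter-Glo luminescence.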
Active calls of the source: *; ? = inconclusive; nt = no result given; & = joins results of further samples; [ ] = another dose, or the depositor's remark. Unless noted, the call rests on the fitted dose curve; in most records, active means well fitted curve in the direction sought with a large enough effect; inconclusive means small, poorly fitted or top-dose-only effect, or another doubt; inactive means no such curve, though single readings can be large; an effect the other way counts as inactive or inconclusive. Potency means the concentration at half of the fitted maximal effect. Rows were taken by chance (roughly 4.8% active in at least one column).

The first 2 records, to show the layout:
SMILES	Cruzain Triton	NS1 inh	Cruzain noTriton	Marburg entry inh	StopGo reporter	SARS PLpro yeast	Lassa entry inh	RE007 growth inh
Cc1ccc(S(=O)(=O)c2cccc(S(=O)(=O)N3CCCC3)c2)cc1S(=O)(=O)N1CCCC1	-1.3%	?	18%	?	-13%	-5%	?	4%
Oc1oc(-c2ccccc2)nc1C=NCc1ccccc1	-14%	-100%	-7%	?	106%[activator]	-24%	?	-7%

Results (from the top)
SMILES	Cruzain Triton	NS1 inh	Cruzain noTriton	Marburg entry inh	StopGo reporter	SARS PLpro yeast	Lassa entry inh	RE007 growth inh
Cc1ccc(S(=O)(=O)c2cccc(S(=O)(=O)N3CCCC3)c2)cc1S(=O)(=O)N1CCCC1	-1.3%	?	18%	?	-13%	-5%	?	4%
Oc1oc(-c2ccccc2)nc1C=NCc1ccccc1	-14%	-100%	-7%	?	106%[activator]	-24%	?	-7%
COc1ccc(S(=O)(=O)NC(C)C(=O)Nc2ccccc2F)cc1 (stereo not given)	0.8%	-7%	4%	-1%	-8%	-2%	7%	4%
O=C1CC(SCc2nc3ccccc3[nH]2)C(=O)N1c1cccc(Cl)c1 (stereo not given)	-12%	-156%	16µM*	?	3%	-39%	2%	28µM*
Cc1ccc(C(=O)c2cnc3cc4c(cc3c2S(=O)(=O)c2ccccc2)OCCO4)cc1	-6.9%	?	?	7.1µM*	2%	-8%	-2%	-13%
COc1cc(OC)c2ccc(=O)oc2c1	-5.6%	nt	?	nt	-4%&4%	2%	nt	-6%
Cc1cc(NC(=O)CSc2nnc(NC(=O)C3CC(=O)N(c4ccccc4)C3)s2)no1 (stereo not given)	0.4%	25%	?	15%	4%	11%	-1%	-5%
CC1(c2ccc(Cl)cc2Cl)OCC(Cn2cncn2)O1 (stereo not given)	nt	-11%	nt	0%	-16%	0%	1%[46.1 µM]	3%
NC1=NC[C@H](c2ccccc2)N1CCc1cc(C(F)(F)F)cc(C(F)(F)F)c1	nt	-1%	nt	nt	?	-2%	nt	11%
Cc1cc(C)n2c(SCCN3C(=O)c4ccccc4C3=O)nnc2n1	-1.9%	-1%	-5%	nt	0%	-31%	nt	-3%
O=C(CCn1cnnn1)Nc1ccc(F)cc1	-0.3%	6%	-22%	?	23%&15%	4%	11%	10%
COCCn1c(SCC(N)=O)nnc1-c1c[nH]c2ccccc12	1.1%	1%	-9%	nt	-1%	5%	nt	8%
C=CCN(C(=O)c1ccc2snnc2c1)c1ccccc1	nt	5%	nt	?	24%	2%	?	9%
COc1ccccc1-c1coc2cc(O)cc(O)c2c1=O	-0.2%	-108%	4%	-2%	54%[activator]	-17%	30%	-29%
NS(=O)(=O)c1ccc(CCNC(=O)Cc2ccccc2[N+](=O)[O-])cc1	nt	3%	nt	-7%[46.1 µM]	0%	0%	5%[46.1 µM]	-4%
CCc1ccc(C(=O)NCc2ccc(Cl)cc2Cl)cc1	-7.1%	-32%	-2%	?	31%[activator]	-18%	1%	45%
Cc1ccc(C)c(NC(=S)NNc2ccc(F)cc2F)c1	nt	-42%	nt	-16%[46.1 µM]	14%	-11%	?	1%
NC(Cn1ccc(=O)[nH]c1=O)C(=O)O (stereo not given)	3.8%	-1%	7%	-11%&-11%	nt	nt	nt	nt
Cc1ccc(Cl)c2c1NC(=O)C2(O)CC(=O)c1ccccc1O (stereo not given)	-4.9%	1%	5%	-2%	-13%	1%	2%	9%
Cc1sc(NC(=O)c2oc3ccccc3c2C)c(C#N)c1C	-3.1%	6%	-26%	14%	-4%	-3%	5%	6%
CN(C(=O)NC1CCCCC1)c1ccccc1	nt	-1%	nt	27%	-10%	0%	4%	4%
Cn1nc([N+](=O)[O-])nc1Oc1ccccc1F	nt	3%	nt	-10%[46.1 µM]	-11%	0%	?	38%
Cc1cc(C)n(-c2nc(SCCN3CCOCC3)c3c4c(sc3n2)CCCC4)n1	nt	nt	nt	10%[46.1 µM]	-2%	nt	13%	-3%
S=C(NN=Cc1ccccn1)N(Cc1ccccn1)Cc1ccccn1	nt	nt	nt	1.3µM*	-15%	nt	?	-17%
CC(NC1=CC(=O)c2cccnc2C1=O)C(O)c1ccccc1 (stereo not given)	nt	nt	nt	11µM*	28µM*	nt	?	1%
N=C1C(c2nc3ccccc3c(=O)[nH]2)=C(O)CN1c1ccccc1	2.3%	-1%	?	0%	nt	8%	nt	nt
CCOC(=O)CNc1nc(C(C)(C)C)nc2c1nnn2Cc1ccccc1	nt	-2%	nt	nt	?	0%	nt	16%
CCOC(=O)c1c(-c2cccs2)csc1NC(=O)CN(CC)CC	0.9%	-66%	-1%	?	-24%	-13%	?	-5%[3.69 µM]
Cc1ccc(C)c(N2CCN(C(=O)CN3C(=O)COc4ccc(S(=O)(=O)N5CCCC5)cc43)CC2)c1	0.1%	nt	-5%	-8%[46.1 µM]	-27%	nt	17%[46.1 µM]	nt
CCOC(=O)Cc1csc(NC(=O)CN2CCCCC2)n1	nt	9%	nt	-25%	-21%	-4%	-19%	22%

Reprinted at random: two entries already listed, in no set order.
SMILES	Cruzain Triton	NS1 inh	Cruzain noTriton	Marburg entry inh	StopGo reporter	SARS PLpro yeast	Lassa entry inh	RE007 growth inh
NC1=NC[C@H](c2ccccc2)N1CCc1cc(C(F)(F)F)cc(C(F)(F)F)c1	nt	-1%	nt	nt	?	-2%	nt	11%
S=C(NN=Cc1ccccn1)N(Cc1ccccn1)Cc1ccccn1	nt	nt	nt	1.3µM*	-15%	nt	?	-17%

The list continues:
SMILES	Cruzain Triton	NS1 inh	Cruzain noTriton	Marburg entry inh	StopGo reporter	SARS PLpro yeast	Lassa entry inh	RE007 growth inh
Cc1ccc(-c2nn(C)c(=O)c3ccccc23)cc1S(=O)(=O)N1CCCC1	-10%	-64%	15%	nt	-14%	3%	nt	-8%
COc1ccc(-n2c(SCCC(C)C)nc3sc4c(c3c2=O)CC(C(C)C)OC4)cc1 (stereo not given)	-0.8%	nt	-3%	1%[46.1 µM]	-24%	nt	-11%[46.1 µM]	nt
CS/C(N)=N/N=C/c1ccc2c(c1)OCO2	nt	0%	nt	?	41%[activator]	0%	-14%	-20%
C#CCOCCOCCOCCNc1nc(N2CCN(C(=O)[C@H](CCC(=O)O)n3cc(C(N)[C@H](C)CC)nn3)CC2)nc(N2CCN(C(=O)[C@H](CCC(=O)O)n3cc(C(N)[C@H](C)CC)nn3)CC2)n1 (stereo not given in full)	nt	-8%	nt	nt	-12%	0%	nt	270%
CCC(Oc1cc(Cl)ccc1Cl)C(=O)NNC(=O)CCC(=O)O (stereo not given)	-3.5%	-4%	-7%	?	-12%	5%	0%	-8%
Cc1cc(C(=O)NC2CCCC(C)C2C)c2ccccc2n1 (stereo not given)	nt	nt	nt	-25%	1%	-2%	11%	2%
COc1ccc(NC(=O)C2CC3C=CC2C3)c([N+](=O)[O-])c1 (stereo not given)	nt	nt	nt	18%	24%	nt	-16%	11%
Cc1ccc(OCc2ccc(C(=O)Nc3ccc(C(N)=O)cc3)o2)c([N+](=O)[O-])c1	nt	6%	nt	nt	-9%	0%	nt	-2%
Cn1cccc1Cc1nnc(SCC(=O)NCCc2ccccc2)n1C	nt	nt	nt	6%[46.1 µM]	11%	-6%	-8%[46.1 µM]	4%
CC(C)Cn1c(N)c(C(=O)COC(=O)C2CCCN2C(=O)c2cccs2)c(=O)n(C)c1=O (stereo not given)	nt	nt	nt	27%	-30%	-1%	-10%	18%
N/C(=N\OC(=O)c1cccc(F)c1)c1cccc([N+](=O)[O-])c1	nt	-5%	nt	?	44%[activator]	-4%	6%	-1%
CCN(CC)c1ccc(NC(=O)COC(=O)C2CCN(c3ccc(C(F)(F)F)cn3)CC2)cc1	nt	nt	nt	5%	-10%	0%	2%	?
Cc1cc(C)c(NC(=O)C2CCCN(S(=O)(=O)c3c(C)noc3C)C2)c(C)c1 (stereo not given)	0.7%	nt	1%	14%[46.1 µM]	-24%	nt	5%[46.1 µM]	nt
Cn1ccnc1SCC(=O)Nc1cc(Cl)ccc1Cl	-1.8%	nt	1%	?	46%[activator]	nt	0%[46.1 µM]	nt
Cc1ccc(C)c(NC(=O)Cn2c(=O)n(Cc3ccc4c(c3)OCO4)c(=O)c3oc4ccccc4c32)c1	0.3%	nt	0%	nt	-6%	nt	2%[46.1 µM]	nt
Cc1ccccc1CNC(=O)C(=O)NCC1CCCN1S(=O)(=O)c1ccccc1 (stereo not given)	nt	nt	nt	?	-1%	-2%	-19%	9%
COC(=O)[C@@H]1C[C@H]2CC[C@H](O)C[C@H]2N1Cc1ccc(C(F)(F)F)cc1	-0.7%	-2%	0%	nt	-22%	0%	nt	-2%
O=C(Cc1ccccc1)Nc1ccc(-c2nnc(-c3ccco3)o2)cc1	-0.1%	0%	-28%	-13%[46.1 µM]	24%	18%	14%	-1%

Shown as labelled records: 4 of the compounds above.
> Cn1cccc1Cc1nnc(SCC(=O)NCCc2ccccc2)n1C
  Cruzain Triton: nt; NS1 inh: nt; Cruzain noTriton: nt; Marburg entry inh: 6%[46.1 µM]; StopGo reporter: 11%; SARS PLpro yeast: -6%; Lassa entry inh: -8%[46.1 µM]; RE007 growth inh: 4%
> Cc1ccc(OCc2ccc(C(=O)Nc3ccc(C(N)=O)cc3)o2)c([N+](=O)[O-])c1
  Cruzain Triton: nt; NS1 inh: 6%; Cruzain noTriton: nt; Marburg entry inh: nt; StopGo reporter: -9%; SARS PLpro yeast: 0%; Lassa entry inh: nt; RE007 growth inh: -2%
> Cn1ccnc1SCC(=O)Nc1cc(Cl)ccc1Cl
  Cruzain Triton: -1.8%; NS1 inh: nt; Cruzain noTriton: 1%; Marburg entry inh: ?; StopGo reporter: 46%[activator]; SARS PLpro yeast: nt; Lassa entry inh: 0%[46.1 µM]; RE007 growth inh: nt
> CS/C(N)=N/N=C/c1ccc2c(c1)OCO2
  Cruzain Triton: nt; NS1 inh: 0%; Cruzain noTriton: nt; Marburg entry inh: ?; StopGo reporter: 41%[activator]; SARS PLpro yeast: 0%; Lassa entry inh: -14%; RE007 growth inh: -20%
